Compound activity: PubChem, several laboratories
T cruzi inh – inhibitors of intracellular T. cruzi growth, primary screen, luminescence, NIH3T3 host cells; inhibition, % (test concentration not listed); hit rate 1.4% among 300,000; T. cruzi beta-gal in NIH3T3, 90 h;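 active means mean inhibition across valid replicates above about 55%, limit read from the data; inconclusive means mean below that limit but half or more replicates reach it; inactive means mean below it, under half of replicates reach it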;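 further: signal also drops with host cell toxicity which is not excluded here; 0% = plate median of DMSO wells and 100% = zero luminescence signal; higher percent means less beta-gal luminescence so fewer parasites; stock transfer was 50 nL into about 50 µL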
UCH37 inh – inhibitors of human UCH37 deubiquitinase, primary screen, biochemical, Ub-AMC cleavage, fluorescence; purified proteasome/UCH37; inhibition, % (concentration not given with the values); hit rate 0.33% among 330,000; AID 588478, 2011;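 active means mean of two replicates above 20%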;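 further: 0% = compound-free wells with enzyme and 100% = wells lacking proteasome; stock transfer was 100 nL into about 20 µL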
Target sequence (Q9Y5K5 whole entry, looked up): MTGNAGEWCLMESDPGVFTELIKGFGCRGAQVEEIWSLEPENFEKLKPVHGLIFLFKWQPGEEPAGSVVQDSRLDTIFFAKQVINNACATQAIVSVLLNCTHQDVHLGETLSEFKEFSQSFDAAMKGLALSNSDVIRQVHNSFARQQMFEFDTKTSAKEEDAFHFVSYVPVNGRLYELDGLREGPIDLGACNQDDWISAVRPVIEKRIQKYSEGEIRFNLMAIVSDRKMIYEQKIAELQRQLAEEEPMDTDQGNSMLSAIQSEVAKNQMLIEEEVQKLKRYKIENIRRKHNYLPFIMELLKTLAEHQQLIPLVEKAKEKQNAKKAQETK
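Material: Human UCH37 enzyme supplied as purified proteasome complex | Schedule: 30 min preincubation with enzyme, 25 min cleavage at room temperature | Detection: AMC fluorescence 355/460 nm | Measure: % inhibition of Ub-AMC cleavage fluorescence | Controls: Wells without proteasome as full block, compound-free enzyme plus substrate as uninhibited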
MLL AF4-AF9 inh – inhibitors of AF4 peptide binding to AF9, primary screen, biochemical, AlphaScreen, biotin-AF4 peptide, FLAG-AF9, single point. Protein AF-9 (Homo sapiens), P42568. inhibition, % at 10 µM. hit rate 0.47% among 350,000. AID 651704, 2012;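 active means every replicate reaching a set inhibition limit, whatever the replicate mean, cut at about 25% in these data; inconclusive means mean inhibition reaches that limit but some replicates miss it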;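 further: 0% = plate neutral control median and 100% = total signal loss; the record names both 10 and 1 µM as test concentration; the first replicate is given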
Target sequence (P42568 whole entry, looked up): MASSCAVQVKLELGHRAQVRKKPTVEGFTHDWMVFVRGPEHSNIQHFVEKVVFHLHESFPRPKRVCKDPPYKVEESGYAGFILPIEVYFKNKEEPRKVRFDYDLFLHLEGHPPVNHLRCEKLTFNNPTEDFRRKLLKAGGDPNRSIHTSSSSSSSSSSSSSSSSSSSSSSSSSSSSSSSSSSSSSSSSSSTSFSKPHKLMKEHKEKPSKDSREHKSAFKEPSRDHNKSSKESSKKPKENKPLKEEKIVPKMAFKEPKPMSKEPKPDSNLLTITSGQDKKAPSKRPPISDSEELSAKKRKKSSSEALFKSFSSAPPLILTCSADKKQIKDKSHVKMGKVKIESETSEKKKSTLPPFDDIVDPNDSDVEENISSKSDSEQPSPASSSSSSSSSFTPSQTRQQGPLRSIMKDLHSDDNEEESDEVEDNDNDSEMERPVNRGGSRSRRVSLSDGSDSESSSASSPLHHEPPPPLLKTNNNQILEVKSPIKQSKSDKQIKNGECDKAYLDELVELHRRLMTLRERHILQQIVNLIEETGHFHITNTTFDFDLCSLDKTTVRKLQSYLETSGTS
Ecoli rRNA inh – reduced GFP signal of wild-type E. coli, primary screen, bacterial rRNA inhibitor project, GFP/RFP fluorescence, OD600, single point. E. coli WT GFP vs humanized-ribosome RFP mutants, 24 h; active compounds read low; DMSO median 0, no signal -100. GFP signal change (wild-type ribosome), % (test concentration not listed). hit rate 1.6% among 350,000. AID 720706, 2013;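 active means significant combined selectivity score with lowered wild-type GFP, culture density cut under 30%, mutant RFP and density less affected; inactive means any of these conditions unmet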; further: one replicate is shown; some compounds called inactive have numbers as strong as hits
FGF22 binding – binders of human FGF22 protein, primary screen, FGF22 synaptogenesis inhibitor project, biophysical, thermal shift, single point; AID 651658, 2012; recombinant FGF22 thermal shift, SYPRO orange fluorescence; percent of sucrose octasulfate shift, DMSO zero; Fibroblast growth factor 22 (Homo sapiens), Q9HCT0; calls only at 9.99 µM; hit rate 1.5% among 340,000;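 active means melting point raised past a set limit in the mean and every replicate; inconclusive means no clear call; three in four hits are not shown here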
Target sequence (Q9HCT0 whole entry, looked up): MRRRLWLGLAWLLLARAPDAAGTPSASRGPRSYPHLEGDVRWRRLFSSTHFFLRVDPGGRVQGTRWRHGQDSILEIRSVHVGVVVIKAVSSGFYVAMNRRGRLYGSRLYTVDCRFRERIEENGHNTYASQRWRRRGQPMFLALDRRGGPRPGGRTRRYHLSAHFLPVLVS
Beta cell apopt – inhibitors of cytokine-induced beta cell apoptosis, primary screen, luminescence; hit rate 0.8% among 300,000; AID 435005, 2010; INS-1E cytokine-induced death, ATP luminescence, 48 h; percent of positive-control rescue, neutral wells zero; protection from apoptosis, % (concentration not given with the values);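 active means all replicates at 75% or more, or half of them and the mean; inconclusive means half reach 75% but not the mean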;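 further: 0% = cytokine-treated negative control wells and 100% = positive control rescue; higher means more ATP so stronger rescue from cytokine killing; wells of about 40 µL received 100 nL stock; the first replicate is given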
A1 inh – caspase 3/7 activation in MEF A1-2A-BIM cells, primary screen, A1 inhibitor project, cell-based, luminescence, HTS; AID 2462, 2010; caspase activation, % (no concentration beside the values); hit rate 0.066% among 330,000; Caspase-Glo 3/7 luminescence, 3 h; percent of clofoctol response, vehicle zero;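 active means over half of replicate activation scores above 10%, or exactly half above 10 with the replicate mean above 10; inconclusive means replicate mean below 10 yet half the replicates above 10; inactive means over half of replicates below 10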;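 further: wells of about 30 µL received 50 nL stock; many hits fall short of the cut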
Ecoli growth – E. coli growth inhibition, primary screen, OD600; hit rate 0.21% among 330,000; OD600 absorbance (test concentration not listed); Escherichia coli growth, 23 h; active compounds read low;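 active means OD600 absorbance below the run mean of sample wells minus 3.6 SD, in any replicate, cut at about 0.56 in these data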;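 further: stock transfer was 300 nL into about 60 µL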
Ecoli rRNA inh OD600 – also measured in Ecoli rRNA inh; calls as there; OD600 change, %; measured here: OD600 growth;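 optical density of the mix in the first replicate; 0 = DMSO median and -100 = no signal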
Ecoli rRNA inh RFP – second read-out of Ecoli rRNA inh, no call of its own (marks repeat the call); RFP signal change, %; measured here: RFP humanized mutant strains;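 first replicate; 0 = DMSO median and -100 = no signal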
Numbers without * were called inactive; i = inactive; ? = inconclusive; / = not tested or not shown; + = active, no number. An excerpt. The share of hits here may be higher or lower than overall.

SMILES | T cruzi inh | UCH37 inh | MLL AF4-AF9 inh | Ecoli rRNA inh | Ecoli rRNA inh OD600 | Ecoli rRNA inh RFP | FGF22 binding | Beta cell apopt | A1 inh | Ecoli growth
CC1CCCN(CCCN2C(=O)C3C(C(=O)Nc4ccc(Cl)cc4)C4C=CC3(O4)C2C(=O)NC2CCCCC2)C1 (stereo not given) | 15 | 0.1 | -1.3 | 5 | 11 | 4.5 | i | -2 | 0.8 | 0.68
COc1cccc(NS(=O)(=O)NC(=O)c2c[nH]c3ccccc23)c1 | -7 | 0.5 | 5.0 | 4 | 8 | 0.5 | i | 1 | 0.3 | 0.68
CN1CCC(OC(=O)c2ccco2)CC1 | 22 | 4.2 | -1.8 | -1 | 12 | -0.9 | i | -10 | -0.4 | 0.71
O=C(NC1CCCCC1)c1ccccc1NC(=S)NC(=O)C1CC1 | -10 | -1.2 | / | / | / | / | / | -17 | -0.7 | 0.73
Cn1ncc2c(Nc3ccc(Cl)c(Cl)c3)ncnc21 | 2 | -13 | -0.9 | -8 | -2 | -1.0 | + | 10 | 0.1 | 0.71
O=C(Nc1ccc2c(c1)OCO2)c1ccc(Cl)cc1Cl | 4 | 2.6 | -2.8 | -31 | -33 | -11 | i | 6 | -0.1 | 0.68
COc1ccccc1N1CCN(S(=O)(=O)c2ccc3c4c(cccc24)C(=O)N3)CC1 | 20 | 0.0 | 14 | -15 | 5 | 7.7 | i | -6 | 1.7 | 0.71
COc1ccc(OC)c(CNC(=O)C2CCC(=O)N(CCCN3CCCC3=O)C2)c1 (stereo not given) | 6 | 1.2 | 1.1 | 6 | 7 | -2.0 | i | -5 | -0.5 | 0.66
CCN1CCC(CNCc2cn(-c3ccc(OC)cc3)nc2-c2ccccc2Cl)C1 (stereo not given) | 21 | 1.6 | 22 | 9 | 8 | 1.4 | i | 4 | 1.0 | 0.68
CC(=O)Nc1sc(C)c(C)c1CN1CCN(Cc2ccccc2)CC1 | 27 | -1.0 | -2.2 | 24 | 4 | 2.2 | i | -3 | 0.2 | 0.69
O=C(CCC(=O)c1ccc(Oc2ccccc2)cc1)Nc1ccc(C(=O)O)cc1 | -8 | -0.6 | -0.5 | -7 | -16 | -1.6 | i | -4 | 0.0 | 0.64
CC(C)CCSc1nnc(Cn2c(=O)sc3ccccc32)n1C | -3 | 5.3 | 0.5 | 0 | 8 | -1.7 | i | -1 | -0.3 | 0.74
O=C(c1cc(-c2ccccc2)nc2ccccc12)N1CCN(C2CCS(=O)(=O)C2)CC1 (stereo not given) | / | / | -3.1 | 6 | 5 | -1.1 | i | 2 | 0.9 | /
CCN(CC(=O)Nc1ccccc1C(F)(F)F)C(=O)/C=C/c1ccc(Cl)c([N+](=O)[O-])c1 | 5 | 2.4 | -1.5 | 13 | 10 | 2.0 | i | 0 | -1.0 | 0.67
CCS(=O)(=O)c1ccc(O)c(NC(=O)COc2ccccc2)c1 | -15 | 0.1 | / | / | / | / | / | 3 | -1.0 | 0.62
COc1ccc(NC(=O)N(Cc2cc3cc(OC)c(OC)cc3[nH]c2=O)CC2CCCO2)cc1 (stereo not given) | 12 | -48 | 0.2 | 10 | 16 | 4.0 | i | 3 | -1.4 | 0.64
Cc1ccc(C)c(OCCCC(=O)NC2CCCCC2)c1 | 4 | 1.6 | -34 | 3 | 13 | -1.1 | i | / | 2.0 | 0.66
Cc1cc(C)n(CCc2nc(-c3cccs3)cs2)n1 | -14 | 1.3 | / | / | / | / | / | / | 0.5 | 0.74
O=[N+]([O-])c1ccc(CP(=O)(c2ccccc2)c2ccccc2)cc1 | -9 | 0.3 | -4.0 | -4 | -2 | 2.0 | i | 22 | ? | 0.62
COc1ccc(-c2cc(C(F)(F)F)c(C#N)c(SCC(=O)O)n2)cc1 | 18 | -151 | -1.5 | -41 | -55 | -6.4 | i | -8 | -0.2 | 0.71
COc1ccc(C(=O)Nc2ccccc2C(=O)NCCN2CCOCC2)cc1 | -2 | 3.0 | 0.6 | 3 | 11 | -1.4 | i | 1 | -2.0 | 0.72
COc1ccc(N=C2CCS(=O)(=O)c3sccc32)cc1 | / | 0.7 | 4.4 | 9 | 22 | 1.0 | i | 0 | 0.0 | 0.66
O=C(O)CC1(CC(=O)NCc2ccc(-c3cccs3)cc2)CCCCC1 | -7 | -3.3 | / | -20* | 5.0* | 1.3* | i | -5 | 0.0 | 0.68
OC(COc1ccc(C2C=CCC2)cc1)CN1CCCCC1 (stereo not given) | 21 | 0.3 | / | / | / | / | / | -6 | 0.1 | 0.64
CCC1(C(=O)O)NC(c2cccc(OC)c2O)C2C(=O)N(c3ccccc3)C(=O)C21 (stereo not given) | 9 | 1.7 | 4.7 | 14 | 16 | 1.0 | i | -13 | 0.1 | 0.78
COC(=O)Cn1c(CN2CCc3ccccc3C2)nc2c1c(=O)n(C)c(=O)n2C | -3 | 4.9 | -4.3 | 5 | 9 | 0.1 | i | -7 | 0.4 | 0.77
COC(=O)c1nnn(-c2cccc(Cl)c2)c1C(=O)OC | -4 | 4.8 | -2.0 | 10 | 0 | 3.1 | i | -3 | 2.1 | 0.69
COC(=O)CSc1nc2ncccc2[nH]1 | -9 | -0.8 | / | / | / | / | / | -3 | 1.4 | 0.71
Cc1ccc(C(=O)NC(NC(=S)Nc2ccc(S(N)(=O)=O)cc2)C(Cl)(Cl)Cl)cc1 (stereo not given) | 3 | 4.3 | / | / | / | / | / | 0 | 0.0 | 0.69
Cc1ccc(-c2nc3c(c(=O)[nH]c(=O)n3Cc3ccccc3)n2C)o1 | / | -62 | -2.8 | 19 | 19 | 1.9 | i | / | / | 0.7
Cc1cccc(C(=O)NCCCn2ccnc2)c1C | -13 | 1.6 | -0.9 | 9 | 6 | 0.1 | i | -10 | -0.2 | 0.63
CC1(C)OC(=O)C(=CNc2ccc(F)cc2)C(=O)O1 | -8 | 6.2 | / | / | / | / | / | -8 | 0.1 | 0.7
O=C(Nc1cccnc1)c1cccc(-c2cc3ccccc3oc2=O)c1 | -5 | 1.8 | -1.5 | 8 | -1 | -2.6 | i | 6 | 0.0 | 0.67
COc1ccc(Cl)cc1C(=O)Nc1ccc2nc3n(c(=O)c2c1)CCCC3 | 7 | 1.8 | -5.7 | 4 | -1 | 0.4 | i | -2 | -0.4 | 0.67
COC(=O)C1CCN(C(=O)c2cc3ccccc3oc2=O)CC1 | -7 | -0.4 | / | / | / | / | / | -8 | 1.1 | 0.72
COc1cc(C(=O)OCc2cc(=O)n3ccsc3n2)ccc1OC(C)C | / | 4.7 | -0.5 | 8 | 16 | -2.5 | i | 0 | -0.6 | 0.73
COc1ccc(Cn2c(=S)[nH]c3ccccc32)cc1 | 7 | 3.2 | -3.1 | -16 | -7 | 3.7 | i | -7 | 0.9 | 0.68
N/C(=N\c1nc(CSc2ccc(Cl)cc2)cc(=O)[nH]1)Nc1cccc2ccccc12 | -17 | 1.3 | -7.8 | 9 | 5 | -0.5 | i | 9 | 0.5 | 0.69
Cc1ccc(-c2cccc(OC(=O)c3ccccc3F)c2)cc1 | -3 | 1.5 | / | / | / | / | / | -8 | -0.6 | 0.71
CCc1ccc(CNC(=O)CCn2ccc3cc(S(=O)(=O)N4CCCC4)ccc32)cc1 | 17 | 3.5 | -6.3 | -29 | -30 | -4.1 | i | 4 | 0.1 | 0.65
S=c1[nH]nc(-c2ccncc2)n1/N=C/C=C/c1ccco1 | 1 | / | -5.5 | 5 | 6 | 3.0 | i | -5 | -0.4 | /
O=C(COc1ccc2ccc(=O)oc2c1)Nc1ccc2c(c1)OCCO2 | 6 | -42 | / | / | / | / | / | -2 | -1.0 | 0.64
CCOC(=O)c1cc(CC)sc1NC(=O)CN1CCN(C(=O)c2ccco2)CC1 | 35 | 0.7 | 5.1 | -36 | -70 | -4.1 | i | 6 | -0.9 | 0.68
CC(=O)Nc1ccc(S(=O)(=O)N2CCC(NC(=O)c3ccco3)CC2)cc1 | 1 | 0.3 | / | / | / | / | / | 8 | 0.1 | 0.67
COc1cccc(N2[C@@H](CC(C)=O)c3cc(C(F)(F)F)ccc3S2(=O)=O)c1 | -10 | -0.4 | -21 | -3 | -9 | -1.2 | i | -2 | -0.5 | /
Cc1ccc(CN2CCN(/N=C/C(Br)=C\c3ccccc3)CC2)cc1 | 23 | / | 4.2 | -44 | -72 | -8.2 | i | 0 | 0.8 | /
COc1ccc(S(=O)(=O)Nc2ccccn2)cc1OC | -8 | 1.0 | 4.6 | -4 | -2 | -7.7 | / | -8 | 0.2 | 0.61
COc1ccc(/C=C/C(=O)c2cc(F)ccc2OC(=O)c2ccccc2C)cc1OC | -23 | 1.2 | 9.3 | -7 | 8 | 1.1 | i | 50 | 0.1 | 0.76
CC(NC(=O)C1C(=O)N(CCO)C2(C)CC1c1ccccc1O2)c1ccccc1 (stereo not given) | -4 | 4.9 | / | / | / | / | / | -3 | -0.1 | 0.73
COc1ccccc1NS(=O)(=O)c1cccc(C(=O)NN=C2CCCC2)c1 | -6 | 0.9 | 0.2 | 10 | 9 | 0.8 | i | -4 | -0.5 | 0.69
Cc1ccc(S(=O)(=O)N(C)C)cc1NC(=O)COC(=O)Cc1n[nH]c(=O)c2ccccc12 | -7 | -3.9 | 1.1 | 8 | -12 | 2.2 | i | 1 | 1.6 | 0.71
Cc1ccc(CNS(=O)(=O)CCNC(=O)c2ccccc2)cc1 | -5 | 0.3 | -2.8 | 1 | -4 | -0.8 | i | -1 | 0.4 | 0.6
Cn1c(Cc2ccccc2)nnc1SCCC(=O)Nc1ccccc1 | 6 | 3.0 | / | / | / | / | / | -1 | 0.7 | 0.76
O=C(CSc1nnc(CCCN2C(=O)c3cccc4cccc(c34)C2=O)n1-c1ccccc1)NCCCO | 1 | -6.4 | 5.3 | -15 | -14 | -0.7 | i | -5 | 1.7 | 0.7
c1ccc(-n2c(-c3ccncc3)nnc2N2CCOCC2)cc1 | 1 | 2.2 | / | / | / | / | / | / | 0.9 | 0.68
OCCNCc1cccc2ccccc12 | -5 | 0.4 | -3.9 | 18 | 13 | -0.3 | i | 1 | 0.0 | 0.69
COCCCNC(=O)/C(C#N)=C1\N=C(NC(=O)c2cccs2)c2ccccc21 | / | -1.5 | 3.7 | -5 | -4 | 3.0 | i | 1 | 2.3 | 0.64
